Screening data as filed in PubChem BioAssay.
Vaccinia inh: Vaccinia orthopox stage-specific inhibition; Vaccinia-infected cells, mCherry/Venus stage reporter fluorescence; stronger effect = lower value; some inactives read as strong as hits; activity change (mCherry), % (concentration not given with the values); actives 0.01% (n = 89,000); AID 1053133;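 active = mCherry past -33% and 40 or more points under the early reporter, replicates agreeing; inconclusive = past -33% without that gap or agreement; tested in A549 cells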;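 note: scaled between vehicle wells and reference inhibitor wells; 23 nL library stock went into each well; one replicate is shown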
Vaccinia inh Venus: recorded beside Vaccinia inh, whose call it bears; activity change (Venus), %; measured here: Venus reporter, other viral stage;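 negative = less Venus signal; first of two replicates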
The depositor's hits bear a star; ? = inconclusive; · = no result given.

SMILES | Vaccinia inh | Vaccinia inh Venus
O=C(C[C@H]1CC[C@@H]2[C@H](COC[C@@H](O)CN2S(=O)(=O)c2cccc(F)c2)O1)NC1CCC1 | 12 | 8
COc1ccc(-c2cnc3c(c2)C(=O)N([C@@H](C)CO)C[C@@H](C)[C@@H](CN(C)C(=O)C2CCOCC2)O3)cc1 | 18 | 8
CC=Cc1ccc2n(c1=O)C[C@@H]1[C@@H](CO)[C@H](C(=O)NCc3ccccn3)[C@H]2N1CC1CC1 (mixture of isomers) | 5 | 11
CCCNC(=O)N1CC2(CCN(S(=O)(=O)c3ccc(OC)cc3)CC2)c2c(n(C)c3cc(OC)ccc23)[C@H]1CO | 0 | -3
C[C@@H](O)C#Cc1ccc2c(c1)O[C@H](CN(C)Cc1cncnc1)[C@@H](C)CN([C@@H](C)CO)S2(=O)=O | 12 | 5
CCNC(=O)C[C@H]1CC[C@@H]2[C@@H](COc3ccc(NC(=O)C4CCOCC4)cc3C(=O)N2C)O1 | 12 | 13
COc1ccc(S(=O)(=O)Nc2ccc3c(c2)CC(=O)N([C@H](C)CO)C[C@H](C)[C@H](CN(C)Cc2ccncc2)O3)cc1 | 19 | 7
O=C(NC[C@@H]1[C@@H](c2ccccc2)[C@@H](CO)N1CC1CCCC1)C1CC1 | 1 | 5
COc1ccccc1CNC(=O)C[C@H]1CC[C@@H]2[C@H](COC[C@H](O)CN2C(=O)Nc2ccccc2)O1 | -7 | -2
O=C(C[C@@H]1CC[C@@H](NC(=O)c2cccc(F)c2)[C@H](CO)O1)NCc1ccc(Oc2ccccc2)cc1 | ? | ·
C[C@@H]1CN([C@@H](C)CO)C(=O)c2cc(C#CCN(C)C)cnc2O[C@H]1CN(C)C(=O)c1cccnc1 | 17 | 10
C[C@@H]1CN([C@H](C)CO)C(=O)c2cc(NC(=O)c3ccccc3)ccc2O[C@@H](C)CCCCO[C@@H]1CN(C)Cc1ccc2c(c1)OCO2 | ? | ·
N#C[C@@H]1[C@@H](c2ccccc2)[C@H](CO)N1C(=O)c1cc(Cl)cc(Cl)c1 | -6 | -11
O=C(C[C@H]1CC[C@H]2[C@@H](COC[C@@H](O)CN2Cc2ccccc2)O1)NCCCN1CCOCC1 | 9 | 7
C[C@@H]1CN([C@@H](C)CO)C(=O)c2cccc(NS(=O)(=O)c3ccccc3)c2O[C@@H]1CN(C)C(=O)Nc1ccc(F)cc1 | -3 | -8
CCC(=O)N1CC2(C1)[C@@H](c1ccc(-c3ccc(F)cc3)cc1)[C@H](CO)N2S(C)(=O)=O | -6 | -2
CC(C)NC(=O)N1C[C@H]2[C@@H](c3ccccc31)[C@@H](CO)N2C(=O)c1cccnc1 | -2 | 11
C/C=C/c1ccc([C@H]2[C@@H](CO)N(C(=O)NC(C)C)[C@H]2CNC(C)=O)cc1 | 5 | 10
CC(C)NC(=O)N(C)C[C@H]1OCCCC[C@@H](C)Oc2ccc(N(C)C)cc2C(=O)N([C@@H](C)CO)C[C@@H]1C | 9 | 16
CC(C)NC(=O)N(C)C[C@@H]1OCCCC[C@H](C)Oc2ccc(NC(=O)CCCN(C)C)cc2C(=O)N([C@@H](C)CO)C[C@H]1C | 17 | 7
C[C@H](NC(=O)C[C@H]1C=C[C@@H](NC(=O)C2CCOCC2)[C@H](CO)O1)c1ccccc1 | 18 | 10
CO[C@@H]1CN(C)C(=O)c2cc(NC(C)=O)ccc2OC[C@@H](C)N(C(=O)CC2CC2)C[C@@H]1C | 12 | 4
Cc1cccc(S(=O)(=O)N[C@@H]2CC[C@@H](CCNC(=O)CCN3CCCCC3)O[C@H]2CO)c1 | -7 | -1
CCC(=O)Nc1ccc2c(c1)OC[C@H](C)N(Cc1cccnc1)C[C@H](C)[C@@H](OC)CN(C)C2=O | 17 | 16
C[C@@H]1CCCCO[C@@H](CN(C)C(=O)Nc2ccccc2)[C@H](C)CN([C@H](C)CO)C(=O)c2cc(NS(=O)(=O)c3cn(C)cn3)ccc2O1 | 17 | 2

The list goes on; the last 2 above are carried over.
SMILES | Vaccinia inh | Vaccinia inh Venus
CCC(=O)Nc1ccc2c(c1)OC[C@H](C)N(Cc1cccnc1)C[C@H](C)[C@@H](OC)CN(C)C2=O | 17 | 16
C[C@@H]1CCCCO[C@@H](CN(C)C(=O)Nc2ccccc2)[C@H](C)CN([C@H](C)CO)C(=O)c2cc(NS(=O)(=O)c3cn(C)cn3)ccc2O1 | 17 | 2
Cc1noc(C)c1S(=O)(=O)Nc1ccc2c(c1)C(=O)N([C@@H](C)CO)C[C@@H](C)[C@@H](CN(C)Cc1ccc(C(=O)O)cc1)OCCCC[C@H](C)O2 | 14 | 7
CN(C)CC#Cc1ccc([C@H]2[C@@H](CO)N3CCCCN(C(=O)C4CCCC4)C[C@@H]23)cc1 | 2 | -5
C[C@@H]1CN([C@H](C)CO)S(=O)(=O)c2ccc(C#CC3(O)CCCC3)cc2O[C@@H]1CN(C)C(=O)c1ccccc1 | 4 | -2
C[C@@H]1CN([C@@H](C)CO)S(=O)(=O)c2ccc(C#CC3CCCC3)cc2O[C@@H]1CN(C)C(=O)Cc1ccccc1 | ? | ·
C[C@H](CO)N1C[C@H](C)[C@@H](CN(C)Cc2ccccc2)Oc2ccc(NC(=O)C3CC3)cc2CC1=O | 14 | 13
COc1ccc(NC(=O)Nc2ccc3c(c2)CC(=O)N([C@H](C)CO)C[C@H](C)[C@H](CN(C)S(=O)(=O)c2c(C)noc2C)O3)cc1 | 1 | 14
C[C@@H]1CN([C@@H](C)CO)C(=O)c2ccccc2-c2ccccc2CO[C@H]1CN(C)C(=O)c1ccc(F)cc1 | 25 | 12
CCC(=O)N1C[C@H]2[C@@H](c3ccccc31)[C@H](CO)N2Cc1ccc(F)cc1 | 16 | 12
C[C@@H]1CN([C@@H](C)CO)C(=O)c2cc(C#CC3CC3)cnc2O[C@H]1CN(C)C(=O)Nc1ccc(F)cc1 | 4 | 6
C[C@@H](NC(=O)[C@H]1N[C@H]2c3ccc(C4=CCCC4)c(=O)n3C[C@H]2[C@@H]1CO)c1ccccc1 | -6 | 3
C[C@H](CO)N1C[C@H](C)[C@H](CN(C)C(=O)C2CCC2)Oc2ncc(-c3cccc(F)c3)cc2C1=O | -9 | -5
COc1ccc2c3c([nH]c2c1)[C@@H](CO)N(CC1CC1)CC31CN(C(=O)Nc2cccc(F)c2)C1 | -3 | -9
CCCC(=O)N1CC2(C1)CN(C(=O)CC)[C@@H](CO)c1c2c2ccc(OC)cc2n1C | 13 | 3
C[C@H]1CN([C@@H](C)CO)C(=O)c2cc(NC(=O)C3CC3)ccc2O[C@H]1CN(C)Cc1ccc2c(c1)OCO2 | -8 | 2
Cn1cnc(S(=O)(=O)N2C[C@@H](O)COC[C@H]3O[C@@H](CC(=O)NC4Cc5ccccc5C4)CC[C@@H]32)c1 | -6 | 1
COc1ccc(CN(C)C[C@H]2Oc3c(NS(=O)(=O)c4ccccc4)cccc3C(=O)N([C@@H](C)CO)C[C@H]2C)cc1 | 12 | 8
COc1ccc(S(=O)(=O)N(C)C[C@@H]2OCCCC[C@H](C)Oc3ccc(NC(=O)Nc4ccc5c(c4)OCO5)cc3C(=O)N([C@H](C)CO)C[C@@H]2C)cc1 | -7 | -8
Cc1ccc(S(=O)(=O)N[C@H]2CC[C@H](CCNC(=O)c3ccccc3F)O[C@H]2CO)cc1 | -1 | 5
CC=Cc1ccc2n(c1=O)C[C@@H]1[C@@H](CO)[C@H](C(=O)NCC(F)(F)F)N(CC)[C@H]21 (mixture of isomers) | -10 | 3
O=C(C[C@H]1C=C[C@@H](NS(=O)(=O)c2ccccc2)[C@H](CO)O1)NCc1ccccc1F | 11 | -1
COc1cccc(NC(=O)C[C@@H]2CC[C@@H]3[C@@H](COc4ccc(NC(=O)C5CCCC5)cc4C(=O)N3C)O2)c1 | -15 | -6
COc1cccc(NC(=O)N[C@H]2C=C[C@@H](CC(=O)NCc3ccccn3)O[C@H]2CO)c1 | 1 | 0
O=C(Cc1ccncc1)NCC[C@@H]1CC[C@H](NS(=O)(=O)c2ccccc2Cl)[C@H](CO)O1 | 0 | 4
Cc1noc(C)c1NC(=O)NCC[C@H]1CC[C@@H](NC(=O)c2ccccc2)[C@@H](CO)O1 | 0 | -4
C[C@@H]1CN([C@H](C)CO)C(=O)c2cc(NS(=O)(=O)c3ccc(Cl)cc3)ccc2O[C@@H](C)CCCCO[C@@H]1CN(C)S(=O)(=O)c1cccs1 | -22 | -16
The listing continues.
SMILES | Vaccinia inh | Vaccinia inh Venus
C[C@@H]1CN([C@@H](C)CO)C(=O)Cc2cc(NC(=O)Nc3ccccc3)ccc2O[C@@H]1CN(C)CC1CCCCC1 | -34 | -19
CCCN1[C@@H]2c3ccc(-c4ccccc4F)c(=O)n3C[C@@H]2[C@@H](CO)[C@@H]1C(=O)NCC | 9 | 0
O=C(C[C@@H]1CC[C@H](NC(=O)Nc2cc(F)ccc2F)[C@@H](CO)O1)NCc1ccc2c(c1)OCO2 | -15 | -3
C[C@@H](NC(=O)C[C@@H]1C[C@H]2c3cc(NC(=O)C4CCOCC4)ccc3O[C@H]2[C@H](CO)O1)c1ccccc1 | -12 | -6
CCCNC(=O)C[C@H]1CC[C@@H]2[C@H](COc3ccc(NC(=O)c4ccc(C(F)(F)F)cc4)cc3C(=O)N2C)O1 | -17 | -13
O=C(NCc1ccc(F)cc1)[C@H]1[C@H](CO)[C@H]2Cn3c(cccc3=O)[C@H]2N1C(=O)c1cccnc1 | 8 | 10
O=C(C[C@H]1C[C@H]2c3cc(NC(=O)C4CCC4)ccc3O[C@H]2[C@@H](CO)O1)NCCN1CCCCC1 | 6 | 4
CO[C@H]1CC[C@H]2CCN(C)C(=O)[C@@H](C)N(C)C(=O)c3cc(C#N)ccc3OC[C@H]1O2 | -3 | 4
C[C@H](CO)N1C[C@H](C)[C@H](CN(C)Cc2ccc3c(c2)OCO3)Oc2c(cccc2N(C)C)C1=O | 1 | 3
C[C@@H]1CN([C@@H](C)CO)C(=O)c2cccc(NC(=O)Nc3ccccc3)c2O[C@H]1CN(C)S(C)(=O)=O | 6 | 4
C[C@@H]1CN([C@H](C)CO)C(=O)c2cccc(NC(=O)Nc3ccc4c(c3)OCO4)c2O[C@@H]1CN(C)S(=O)(=O)c1ccccc1 | 16 | 9
COc1ccc(NC(=O)N(C)C[C@@H]2Oc3ccc(NC(=O)CCN4CCOCC4)cc3C(=O)N([C@H](C)CO)C[C@H]2C)cc1 | 8 | 7
C[C@H](CO)N1C[C@H](C)[C@H](CN(C)C(=O)CN(C)C)Oc2ncc(C#Cc3ccccc3)cc2C1=O | -1 | -1
CC=Cc1ccc2n(c1=O)C[C@@H]1[C@@H](CO)[C@H](C(=O)NC3CCCC3)N(CC3CCCCC3)[C@H]21 (mixture of isomers) | -26 | -14
COc1ccc(S(=O)(=O)N(C)C[C@H]2OCCCC[C@@H](C)Oc3ccc(NC(=O)NC(C)C)cc3C(=O)N([C@@H](C)CO)C[C@@H]2C)cc1 | -5 | -4
C[C@@H]1CCCCO[C@H](CN(C)Cc2ccncc2)[C@@H](C)CN([C@@H](C)CO)C(=O)c2cc(NC(=O)CCC(F)(F)F)ccc2O1 | -2 | 5
C[C@@H]1CN([C@H](C)CO)S(=O)(=O)c2ccc(-c3ccccc3)cc2O[C@@H]1CN(C)Cc1cccc(F)c1 | ? | ·
O=C(CC1CC1)N1CC(=O)N2[C@H](CO)[C@@H](c3ccc(/C=C/c4ccccc4)cc3)[C@H]2C1 | -22 | -11
C[C@H]1CN([C@@H](C)CO)S(=O)(=O)c2ccc(C#CC3CCCCC3)cc2O[C@@H]1CN(C)Cc1cccnc1 | -26 | -24
N#C[C@@H]1[C@H](c2ccc(-c3ccccc3F)cc2)[C@H](CO)N1C(=O)c1ccccn1 | -32 | -31
C[C@@H]1CCCCO[C@@H](CN(C)C(=O)Nc2ccc3c(c2)OCO3)[C@H](C)CN([C@@H](C)CO)C(=O)c2cc(NS(=O)(=O)c3ccccc3)ccc2O1 | 15 | 5
Cc1noc(C)c1NC(=O)Nc1ccc2c(c1)C(=O)N([C@H](C)CO)C[C@@H](C)[C@H](CN(C)C(=O)Nc1ccc(F)cc1)O2 | 15 | 6
C[C@@H]1CN([C@@H](C)CO)C(=O)Cc2cc(NC(=O)Cn3cnnn3)ccc2O[C@H]1CN(C)Cc1ccc(C(F)(F)F)cc1 | 6 | 0

Quoted from above (ten entries):
SMILES | Vaccinia inh | Vaccinia inh Venus
C[C@@H]1CN([C@@H](C)CO)C(=O)Cc2cc(NC(=O)Nc3ccccc3)ccc2O[C@@H]1CN(C)CC1CCCCC1 | -34 | -19
CCCN1[C@@H]2c3ccc(-c4ccccc4F)c(=O)n3C[C@@H]2[C@@H](CO)[C@@H]1C(=O)NCC | 9 | 0
O=C(C[C@@H]1CC[C@H](NC(=O)Nc2cc(F)ccc2F)[C@@H](CO)O1)NCc1ccc2c(c1)OCO2 | -15 | -3
C[C@@H](NC(=O)C[C@@H]1C[C@H]2c3cc(NC(=O)C4CCOCC4)ccc3O[C@H]2[C@H](CO)O1)c1ccccc1 | -12 | -6
CCCNC(=O)C[C@H]1CC[C@@H]2[C@H](COc3ccc(NC(=O)c4ccc(C(F)(F)F)cc4)cc3C(=O)N2C)O1 | -17 | -13
O=C(NCc1ccc(F)cc1)[C@H]1[C@H](CO)[C@H]2Cn3c(cccc3=O)[C@H]2N1C(=O)c1cccnc1 | 8 | 10
O=C(C[C@H]1C[C@H]2c3cc(NC(=O)C4CCC4)ccc3O[C@H]2[C@@H](CO)O1)NCCN1CCCCC1 | 6 | 4
CO[C@H]1CC[C@H]2CCN(C)C(=O)[C@@H](C)N(C)C(=O)c3cc(C#N)ccc3OC[C@H]1O2 | -3 | 4
C[C@H](CO)N1C[C@H](C)[C@H](CN(C)Cc2ccc3c(c2)OCO3)Oc2c(cccc2N(C)C)C1=O | 1 | 3
C[C@@H]1CN([C@@H](C)CO)C(=O)c2cccc(NC(=O)Nc3ccccc3)c2O[C@H]1CN(C)S(C)(=O)=O | 6 | 4

The list is partial; the hit share may differ from the screen's.
